Source: PubChem BioAssay (National Center for Advancing Translational Sciences (NCATS))
Prx2 Sm inh – Schistosoma mansoni Prx2 inhibition; S. mansoni Prx2 activity coupled to TGR/GSH (TGR is thioredoxin glutathione reductase), NADPH fluorescence loss, qHTS; some inactives read as strong as hits; Potency, µM; AID 448; actives 0.07% (n = 65,000); active means full or partial inhibition curve with a strong effect at the top dose; inconclusive means weaker partial or single-point curve; inactive means no accepted curve; also: series up to 57 µM; many of its hits are not listed in these tables
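Purified S. mansoni TGR and Prx2 in pH 7.4 phosphate buffer with EDTA and Tween-20 were preincubated with compounds for 15 min. Further NADPH/GSH was added, then a 2.5 mM H2O2 aliquot initiated turnover, followed kinetically by NADPH fluorescence.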
Anthrax LT inh – blocks cellular internalization of anthrax lethal toxin | actives 0.67% (n = 70,000) | Cells, anthrax lethal toxin internalization, FRET ratio (460/530) | Potency, µM (doses to about 40 µM), inactives show top-dose activity change, negative = inhibition, actives largely listed as inhibitors; active = well fitted falling ratio curve with the 530 nm signal flat; inconclusive = other ratio curves, or a change in one channel alone; inactive = flat curves in the ratio and both channels; the % refers to the ratio; also: % is scaled to controls: 0 for no effect and ±100 for the full control effect; nearly all actives have a fitted effect of over 50% in size; tested in ME-180 cells; beta-lactamase reporter
* marks the source's active call; other numbers are inactive results; ? = inconclusive; / = not tested or not shown; [ ] = dose if it differs, or a comment. Potency is read from the fitted curve at half-maximal effect. Not all compounds are listed; count on the stated rates, not on these rows.

SMILES	Prx2 Sm inh	Anthrax LT inh
Cc1ccc(NCc2nnc(SCC(=O)NCc3ccco3)n2CC2CCCO2)cc1Cl (centres undefined)	>57	-1%
CCOc1ccc(N(CC(=O)Nc2ccc(OC)cc2)S(=O)(=O)c2c(C)noc2C)cc1	>57	-9%
O=C(CSc1nnc(CNC(=O)c2cccs2)o1)NCCc1ccccc1	>57	-1%
CN(c1ccc(C(=O)N2CCCCC2)cc1)S(=O)(=O)c1ccccc1	>57	7%
O=C(NCc1ccco1)c1ccc2ccccc2c1	>57	-18%
CCn1cc(C(=O)NC2CCC(C)CC2)c(=O)c2cc(S(=O)(=O)N3CCCCC3)ccc21 (centres undefined)	>57	?
COc1ccc(NS(=O)(=O)c2ccc3c(c2)Cc2ccccc2-3)cn1	>57	-13%
COCC(=O)N1CCC2(CC1)CCN(C(=O)Nc1cccc(C#N)c1)CC2	>57	8%
Cc1cnc(CNc2ccnc(-c3cccnc3)n2)cn1	>57	18%
Cc1ccc2cc(CN(Cc3ccccc3)Cc3nnnn3C3CCCC3)c(=O)[nH]c2c1	>57	8%
Cc1c(Cl)cnc(NC(=O)COC(=O)C(NC(=O)c2ccco2)C(C)C)c1Cl (centres undefined)	>57	5%
Cc1ccnc(NS(=O)(=O)c2ccc(NC(=O)C3CCCCC3)cc2)n1	>57	2%
NCCOc1ccccn1	>57	-14%[8 µM]
COc1cc(C2c3c(oc4ccccc4c3=O)C(=O)N2CCN2CCOCC2)cc(OC)c1OC (centres undefined)	>57	/
CCc1nnc(NC(=O)CSc2nnc(CNc3ccc(Cl)cc3)o2)s1	>57	?
Cc1cccc(S(=O)(=O)C(C#N)c2nc3ccccc3nc2N2CCOCC2)c1 (centres undefined)	>57	?
CN(C)C(=O)CSc1cccc2cccnc12	>57	0%
O=S(=O)(c1ccccc1)c1ccccc1/C=N\O	>57	10%
Oc1[nH]c2ccccc2c1C=NCC1CCCO1 (centres undefined)	>57	9%
Cc1cc(SCNC(=O)c2ccccc2)ncn1	/	-8%
CC(C)c1ccc(-c2noc(C3CCCN(C(=O)c4ccc(F)cc4F)C3)n2)cc1 (centres undefined)	>57	?
C[C@H]1CC[C@]2(NC1)O[C@@H]1C[C@@H]3[C@@H]4CC=C5C[C@H](O)CC[C@@]5(C)[C@H]4CC[C@@]3(C)[C@H]1[C@@H]2C	>57	18%
O=C(CN1CCOCC1)Nc1cccc(C(=O)Nc2cccc(C(F)(F)F)c2)c1	>57	?
Cc1ccc2cccc(Oc3cnccn3)c2n1	>57	-7%
Cc1ccccc1OC(C)c1nc(-c2ccccc2)no1 (centres undefined)	>57	?

2 entries from above, set out differently.
NCCOc1ccccn1
  Prx2 Sm inh: >57
  Anthrax LT inh: -14%[8 µM]
COc1cc(C2c3c(oc4ccccc4c3=O)C(=O)N2CCN2CCOCC2)cc(OC)c1OC (centres undefined)
  Prx2 Sm inh: >57
  Anthrax LT inh: /

Next structures:
SMILES	Prx2 Sm inh	Anthrax LT inh
CCNc1ccc(S(=O)(=O)C(F)(F)F)cc1NC(=O)C12CCC(CC1)C2	>57	-8%
COc1ccc(-n2c(Cc3cccn3C)nnc2SCC(=O)Nc2ccc(C)c(Cl)c2)cc1	>57	?
Nc1cccc(-c2nc3ccc(N)cc3s2)c1	>57	?
CN(C)C(=O)c1ccc(Oc2ccc(C(=O)N(C)C)cc2)cc1	>57	-1%
Fc1ccc(C2=Nn3c(Cc4ccccc4)nnc3SC2)cc1	>57	19%
Cc1ccc2cc(CN(Cc3nnnn3C3CCCC3)C3CCCCC3)c(=O)[nH]c2c1C	>57	-11%
COC(=O)CC1C(=O)NC2CCCCC2N1C(=O)c1ccccc1 (centres undefined)	>57	0%
C=C(C)C1CC=C(CN2CCC(C(=O)OCC)CC2)CC1 (centres undefined)	/	-7%
COc1ccccc1-c1nnc(SC/C(O)=C(\C#N)c2nc3ccccc3[nH]2)n1C1CCCCC1	>57	-16%
Cn1c(-c2ccc(F)cc2)cnc1NCc1ccccc1	>57	-18%
CCCCN1CCc2c([nH]c3ccccc23)C1=O	/	-5%
O=C(O)COCC(=O)Nc1ccc2c(c1)CCC2	>57	-10%
C=CCOC(=O)N1CCN(c2cccc(C(F)(F)F)c2)CC1	>57	-6%
CCOc1cc(N2CCOCC2)c(OCC)cc1NC(=O)CCS(=O)(=O)c1ccc(Cl)cc1	>57	5%
O=c1c(-c2cccs2)nc2cnc(Nc3ccccc3)nc2n1C[C@H]1CCCO1	>57	?
CCN(C(=O)CSc1ncn[nH]1)c1cccc2ccccc12	>57	-3%
N#CC1=C(SCc2ccccc2)NC(=O)C(C#N)C12CCCC2 (centres undefined)	>57	-11%
CC(=O)NCCNc1nc(-c2ccc(N(C)C)cc2)nc2ccccc12	>57	?
O=C1C(c2[nH]c3ccccc3c2O)=Nc2ccccc21	/	-3%
CCOC(=O)N1CCN(C(=O)c2ccc(CS(=O)(=O)c3ccc(OC)cc3)o2)CC1	>57	-2%
CCCCCCCCN	/	-1%
CCOC(=O)c1cc(-c2ccccc2)sc1NC(=O)C(C)Sc1nnnn1C (centres undefined)	>57	-6%
Cc1c(N=C/C=C2\N(C)c3ccccc3C2(C)C)c(=O)n(-c2ccccc2)n1C	/	-7%
O=C(C1CSC2(c3ccc(F)cc3)CCC(=O)N12)N1CCCCCC1 (centres undefined)	>57	0%
NNC(=O)[C@@H](O)[C@H](O)[C@H](O)CO	>57	-4%[8 µM]
More results.
SMILES	Prx2 Sm inh	Anthrax LT inh
O=C(c1ccco1)N1CCN(S(=O)(=O)c2cccc(C(F)(F)F)c2)CC1	/	6%
Cc1nnc(N2CCc3ccccc3C2)[nH]c1=O	>57	?
CCC(C)n1[nH]c(=O)cc1N (centres undefined)	>57	-4%
CC(C)[C@@H](CC(=O)N[C@@H]1CCCC[C@H]1C(=O)N[C@H](CC(=O)N[C@@H](CCC(=O)O)CC(=O)O)Cc1ccccc1)NC(=O)C[C@H](Cc1c[nH]c2ccccc12)NC(=O)[C@@H]1CCCC[C@H]1N	>57	-17%
CN(C)S(=O)(=O)c1cc(C(=O)NCCCn2ccc3ccccc32)ccc1Cl	>57	-12%
Cc1ccc2nsnc2c1S(=O)(=O)N(Cc1cc2cccc(C)c2[nH]c1=O)CC1CCCO1 (centres undefined)	>57	-11%
Cc1ccc(C)c(C(=O)c2c(C)nc3sccn23)c1	>57	-16%
O=C(Cc1ccc(F)cc1)N(c1ccc(F)cc1)C1C=CS(=O)(=O)C1 (centres undefined)	>57	-1%
COC(=O)c1cc(OC)c(OC)cc1NC(=O)CN1CCCCC1	>57	?
COc1ccc(Cl)cc1NC(=O)CSc1nncn1-c1cccnc1	>57	0%
Cc1ccc2nc(SCC(=O)NCC3CCCO3)c(C#N)cc2c1 (centres undefined)	>57	-9%
Cn1nnc(NC(=O)CSc2ncn[nH]2)n1	>57	-8%
Cc1nnc(SCC(=O)Nc2cccc(C(F)(F)F)c2)n1Cc1ccco1	?	-6%
c1cc2c(cc1-c1cnc3n1CCC3)OCCO2	>57	-24%
O=C(COc1ccc(Cl)cc1)Nc1ccccc1N1CCOCC1	>57	-8%
COc1ccc(N2C(=O)C3CCCN3C2c2ccccc2F)cc1 (centres undefined)	>57	-1%
Cc1cccnc1NC(=O)Nc1cccc(C(F)(F)F)c1	>57	-3%
CCCCOC(=O)Nc1ccc(N2CCOCC2)cc1	/	-7%
COc1cc(NC(=O)CCN2CCN(Cc3ccccc3)CC2)cc(OC)c1	/	5%
O=c1c(-c2ccccc2)nc2cnc(Oc3cccc(Cl)c3)nc2n1C1CC1	>57	-22%
CCc1cc2c(nc1CC)CCN(CC/C(C)=N/OC[C@H]1O[C@H](c3ccccc3)C=C[C@@H]1Oc1ccc(OC)cc1)C2	/	?
CN(C)c1ccc(NC(=O)c2ccncc2)c2ccccc12	>57	-1%
CC(=NCc1cccnc1)c1c(O)n(-c2ccc(C)cc2)c(=O)[nH]c1=O	>57	6%
CCCC(=O)Nc1ccc(C(=O)N2CCCC2)cc1	>57	5%
CN1CCc2nc(-c3ccccc3)c(-c3ccccc3)cc2C1	/	-6%[8 µM]

Arranged by molar mass (lowest first): some entries from above
SMILES	Prx2 Sm inh	Anthrax LT inh
CCC(C)n1[nH]c(=O)cc1N (centres undefined)	>57	-4%
Cn1nnc(NC(=O)CSc2ncn[nH]2)n1	>57	-8%
Cc1nnc(N2CCc3ccccc3C2)[nH]c1=O	>57	?
CCCC(=O)Nc1ccc(C(=O)N2CCCC2)cc1	>57	5%
Cc1ccc(C)c(C(=O)c2c(C)nc3sccn23)c1	>57	-16%
CN(C)c1ccc(NC(=O)c2ccncc2)c2ccccc12	>57	-1%
Cc1cccnc1NC(=O)Nc1cccc(C(F)(F)F)c1	>57	-3%
CN1CCc2nc(-c3ccccc3)c(-c3ccccc3)cc2C1	/	-6%[8 µM]
COc1ccc(N2C(=O)C3CCCN3C2c2ccccc2F)cc1 (centres undefined)	>57	-1%
COC(=O)c1cc(OC)c(OC)cc1NC(=O)CN1CCCCC1	>57	?
O=C(COc1ccc(Cl)cc1)Nc1ccccc1N1CCOCC1	>57	-8%
CC(=NCc1cccnc1)c1c(O)n(-c2ccc(C)cc2)c(=O)[nH]c1=O	>57	6%
O=C(Cc1ccc(F)cc1)N(c1ccc(F)cc1)C1C=CS(=O)(=O)C1 (centres undefined)	>57	-1%
COc1ccc(Cl)cc1NC(=O)CSc1nncn1-c1cccnc1	>57	0%
COc1cc(NC(=O)CCN2CCN(Cc3ccccc3)CC2)cc(OC)c1	/	5%
O=C(c1ccco1)N1CCN(S(=O)(=O)c2cccc(C(F)(F)F)c2)CC1	/	6%
O=c1c(-c2ccccc2)nc2cnc(Oc3cccc(Cl)c3)nc2n1C1CC1	>57	-22%
Cc1nnc(SCC(=O)Nc2cccc(C(F)(F)F)c2)n1Cc1ccco1	?	-6%
CN(C)S(=O)(=O)c1cc(C(=O)NCCCn2ccc3ccccc32)ccc1Cl	>57	-12%
Cc1ccc2nsnc2c1S(=O)(=O)N(Cc1cc2cccc(C)c2[nH]c1=O)CC1CCCO1 (centres undefined)	>57	-11%
CCc1cc2c(nc1CC)CCN(CC/C(C)=N/OC[C@H]1O[C@H](c3ccccc3)C=C[C@@H]1Oc1ccc(OC)cc1)C2	/	?
CC(C)[C@@H](CC(=O)N[C@@H]1CCCC[C@H]1C(=O)N[C@H](CC(=O)N[C@@H](CCC(=O)O)CC(=O)O)Cc1ccccc1)NC(=O)C[C@H](Cc1c[nH]c2ccccc12)NC(=O)[C@@H]1CCCC[C@H]1N	>57	-17%

Additional entries.
SMILES	Prx2 Sm inh	Anthrax LT inh
Cc1nc(N2CCCCC2)c2sc(=S)n(C)c2n1	>57	?
O=C(c1cccnc1NCc1ccccc1)N1CCOCC1	>57	0%
O=C(C1CCCN(S(=O)(=O)c2cnc[nH]2)C1)N1CCN(c2ccc(Cl)cc2)CC1 (centres undefined)	>57	-2%
COc1cccc(N2CCN(C(=O)C3C4C=CC5(CN(Cc6ccccc6Cl)C(=O)C35)O4)CC2)c1 (centres undefined)	>57	14%
Cc1cc(Cl)cc(Cl)c1OCC(=O)NCc1ccco1	>57	6%
CCOc1ccc(N(CC(=O)N2CCCC2)S(=O)(=O)c2c(C)noc2C)cc1	>57	-12%
Cc1nc2c(-c3ccc(F)cc3)c(C)nn2c(N2CCOCC2)c1C	>57	-16%
CN1CCCC2(CCN(C(=O)c3cc(C(F)(F)F)cc(C(F)(F)F)c3)CC2)C1	>57	-10%
CCCN(Cc1cc2cc(OC)ccc2[nH]c1=O)C(=O)c1ccncc1	>57	-16%
CC(C)OC(=O)C1C(=O)CC(C)(O)C(C(=O)OC(C)C)C1c1cccnc1 (centres undefined)	>57	2%
CCCCNC(=O)Cn1cnc2sc(C(=O)OCC)c(C)c2c1=O	>57	5%
COC(=O)c1cc(-c2ccc3c(c2)OCO3)nc2ccccc12	/	?
Clc1ccc(/C=C\c2nc(Cl)c(-c3ccc(Cl)cc3)c(Cl)n2)cc1	>57	?
O=C(Nc1ccc(N2CCOCC2)cc1)c1ccc(S(=O)(=O)N2CCCCC2)cc1	>57	14%
N#Cc1cc2c(nc1SCc1cccnc1)CCCCC2	>57	-7%
O=C(COc1ccc(Cl)cc1Cl)N1CCCCCC1	>57	-13%
O=C1C2C3c4ccccc4C(c4ccccc43)C2C(=O)N1CN1CCOCC1 (centres undefined)	>57	-8%
OC(c1ccccc1)C1CN(Cc2ccccc2)CCC1(O)c1ccccc1 (centres undefined)	>57	-14%
